# Bioassay records: PubChem BioAssay, ICCB-Longwood Screening Facility, Harvard Medical School
# Ba CapD inh: Bacillus anthracis CapD inhibitors, primary screen, biochemical, fluorescence intensity; CapD gamma-glutamyltranspeptidase (Bacillus anthracis Ames Ancestor); purified CapD enzyme, fluorescence intensity read-out; active compounds read low; some hits fall short of the stated cut; z-score (test concentration not listed); hit rate 0.23% among 140,000;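 active means z-score under -4 in either of two replicates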;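 further: stock transfer was 100 nL into about 40 µL; score is relative to mean and spread of the plate; one replicate is shown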
# AID504770: growth inhibition of E. coli YBA685, primary screen, V. cholerae RctB inhibitors; hit rate 0.27% among 130,000; z-score (no concentration beside the values); AID 504770, 2011; E. coli YBA685 rctB-dependent plasmid, OD600 growth, 3 h; active compounds read low;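 active means z-score under -2 on both plates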;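 further: wells of about 30 µL received 100 nL stock; score is relative to mean and SD of the test wells; the first replicate is given; strong numbers were not always called active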
# Starred values were filed as active, the others as inactive; . = no result given; & = joins results of further samples. Only part of the results is shown; rates above refer to the full screens.
SMILES,Ba CapD inh,AID504770
CN1C(=O)C(O)N=C(c2ccccc2)c2ccccc21 (configuration not stated),-0.12,.
N#Cc1ccc(C=Nc2cccc(-c3ncon3)c2)cc1,0.6,2.6
CCOC(=O)c1cc2oc(C)cc2n1CC(=O)NC1CC1,.,-0.8
CCCN1CCC(N(C(=O)CCC(=O)NC2CCSC2=O)C2CC2)CC1 (configuration not stated),-0.3,.
O=C(CCSc1nccn1Cc1ccccc1)NC1CCCCC1,0.26,-0.95
CC1CCc2ccccc2N1S(=O)(=O)c1cccs1 (configuration not stated),-0.57&-0.27,-1.1&-0.25
CN(CCOc1ccccc1)C(=O)C1CCN(S(=O)(=O)c2cccs2)CC1,.,-0.3
CC1C/C(=C\c2ccccn2)C(=O)/C(=C/c2ccccn2)C1 (configuration not stated),-1.2,-0.1
CC(C)NC(=O)CSc1n[nH]c(-c2ccc(Br)cc2)n1,.,-0.6
O=C(Nc1ccccc1)n1ccc(-c2nn(-c3ccc(Cl)cc3)ccc2=O)n1,3.2,.
CC(=O)c1ccc(N2C(=O)CSCC2=O)cc1,-0.14,.
Cc1csc(/N=C/N(C)C)c1C#N,-2.7,-0.35
CCOc1ccc(CNC(=O)c2cc(C)[nH]n2)cc1OC,0.24,-0.7
COC(=O)C1=C(C)N=c2s/c(=C\c3ccc(OC(C)=O)cc3OC(C)=O)c(=O)n2C1c1ccc(OC)cc1 (configuration not stated),-0.045,.
CCOC(=O)Cn1cc(Cl)c(=O)c(Cl)c1,33,.
CSc1ncccc1C(=O)NCCOc1ccccc1,.,-0.45
Cc1ccc(S(=O)(=O)N2CCN(Cc3ccccc3)CC2)s1,0.48,0.65
Cc1nnc(SCCC(=O)Nc2ccc(Cl)cc2)o1,.,-0.9
CCN(c1ccccc1)S(=O)(=O)N1CCCC(C(=O)O)C1 (configuration not stated),0.055,0.3
O=c1c2c3c(sc2ncn1Cc1c(F)cccc1Cl)CCCC3,-0.28,.
CCC(c1nnc(SCC(=O)Nc2ccc(C(=O)Nc3ccccc3OC)cc2)o1)N(C)C (configuration not stated),.,-0.65
Cc1cnc(C(=O)NCc2ccc(F)cc2)cn1,0.61,1
O=C(COC(=O)c1ccco1)c1ccc(-n2nncc2-c2ccco2)cc1,.,-0.3
CCCNC(=O)C1CCN(C(=O)c2ccc(C(C)(C)C)cc2)CC1,0.01,-0.85

# Entries listed so far that have four or more nitrogen atoms:
SMILES,Ba CapD inh,AID504770
N#Cc1ccc(C=Nc2cccc(-c3ncon3)c2)cc1,0.6,2.6
CC(C)NC(=O)CSc1n[nH]c(-c2ccc(Br)cc2)n1,.,-0.6
O=C(Nc1ccccc1)n1ccc(-c2nn(-c3ccc(Cl)cc3)ccc2=O)n1,3.2,.
CCC(c1nnc(SCC(=O)Nc2ccc(C(=O)Nc3ccccc3OC)cc2)o1)N(C)C (configuration not stated),.,-0.65

# Continued.
SMILES,Ba CapD inh,AID504770
COc1ccc(N2C(=O)/C(=C\c3ccco3)N=C2SCC(=O)N2CCc3ccccc32)cc1Cl,.,-0.2
CSc1ncc(Cl)c(C(=O)NCc2ccccc2)n1,0.27,0.05
CC1=NN(C(=O)Cc2ccccc2)C(C)(C)C1,0.36,0.2
CN(C)c1ccc(C(=O)Nc2nc(-c3ccccc3)cs2)cc1,39,3
CCn1cc(C(=O)N2CCCCC2)c2cc(OC)c(OC)cc2c1=O,-0.89,-0.3
Cc1ccc(NC(=O)CN2C(=O)C(C)SC(C)C2=O)cc1 (configuration not stated),.,-0.05
Nn1c(SCCCSc2nnc(-c3ccco3)n2N)nnc1-c1ccco1,.,0
O=C1CSC2(CCCCC2)N1CCO,0.37,0.6
COC(=O)CN(c1ccc(OC)cc1)S(=O)(=O)c1c(C)noc1C,0.26,0.85
CCOC(=O)Cc1cc(=O)[nH]c(/N=C(\N)Nc2cccc(Cl)c2)n1,.,0.1
Cc1ccc(NC(=O)CSC2CC(=O)NC2=O)cc1 (configuration not stated),.,1.4
CC(C)CCNC(=O)c1ccc2c(c1)ncn2C1CCCC1,-0.93,-0.65
CSc1nc2ccccc2c2nc3ccccc3n12,0.085,0.25
CN1C(=O)/C(=c2/[nH][nH]c(=O)/c2=C\C=C\c2ccccc2)C(=O)c2ccccc21,-5.2*,1.8
O=C1CN(CC(=O)Nc2ccc(SC(F)F)cc2)CCN1,.,-0.05
N/C(CC(=O)Nc1ccc(N2CCOCC2)cc1)=N\O,.,-0.95
CC1=CC(=O)C2=C(C)CC(O)C3C(C)C(=O)OC3C12 (configuration not stated),.,-0.25
S=C(NC1CC2C=CC1C2)N1CCN(C(=S)NC2CC3C=CC2C3)CC1 (configuration not stated),-0.095,.
C=CCNS(=O)(=O)Cc1ccccc1Cl,-0.3,1.7
CCN(c1ccccc1)c1ncnc2c1cnn2-c1ccc(C)cc1,.,0.25
Cc1ccc(C2N(C)c3ccccc3-c3nc4ccccc4n32)o1 (configuration not stated),67,0.45
O=C(c1ccc(I)cc1)N1CCN(c2ccc(O)cc2)CC1,.,-0.25
Cc1nn(C)c2sc(C(=O)NCc3ccc(-c4cccs4)cc3)cc12,4.3,-0.2
CC(=O)N1CCN(C(=S)c2ccc(-c3ccc(C)cc3)o2)CC1,3.4,-0.05
O=C(Cn1nc(-c2ccc(Cl)cc2)c2ccccc2c1=O)Nc1cccc2ccccc12,0.08,0.85
CC1CCCC(C)N1C(=O)C1=COCCO1 (configuration not stated),.,-0.05
CCN(C(=O)Cc1cccs1)c1ccccc1,-0.09,1
COc1ccc2c(Sc3ccccc3)c(C(=O)NC3CCCC3)[nH]c2c1,0.09,0.45
CCOC(=O)C1CCN(CC(=O)Nc2ccc(SC(F)F)cc2)CC1,.,-0.45
CS(=O)(=O)Cc1ccc(C(=O)Nc2ccnn2C2CCCC2)cc1,.,1.4
CCCCC(=O)Nc1ccc(S(=O)(=O)Nc2nc(C)cc(C)n2)cc1,-0.085,.
CC(=O)NCc1ccc(C(=O)COC(=O)C(c2ccccc2)c2ccccc2)o1,.,-0.3
COC(=O)c1ccc(COc2ccccc2Br)cc1,0.025,-0.05
Cc1ccc(C(=O)n2ccc(C(C)Oc3ccc(-c4ccccc4)c(F)c3)n2)cc1 (configuration not stated),-0.15,.
CCn1c(-c2ccc(Cl)cc2)cs/c1=N\N=C/c1ccc(O)cc1,.,-0.2
COC(=O)c1c(N2C(=O)C=CC2=O)sc2c1CCC(C(C)(C)C)C2 (configuration not stated),-0.33,2.5
Cc1ccc(CC(C#N)Sc2nnc(-c3cccs3)n2C2CC2)cc1 (configuration not stated),.,-0.05
O=C(Cn1ccc2ccccc2c1=O)NCCC(=O)NC1CC1,0.8,.
CN1C(=O)N(C)C2(c3ccccc3)Nn3c(s/c(=C/c4ccccc4)c3=O)=NC12c1ccccc1 (configuration not stated),-0.29,.
CC(C(O)c1ccccc1)N(C)S(=O)(=O)c1ccc2ccccc2c1 (configuration not stated),0.035,-1.8
CCOc1ccccc1N1C(=O)C2C(c3ccccc3)C=CC(c3ccccc3)C2C1=O (configuration not stated),0.15,-0.3
O=C(NC1CCCC1)c1ccc(CSCc2ccccc2Cl)o1,0.26,0.1
O=c1[nH][nH]c2cccc(F)c12,19,0.7
O=c1oc(-c2ccc([N+](=O)[O-])o2)nc2ccccc12,-0.03,.
Cn1cccc1/C=N/NC(=O)c1ccccn1,.,-1.2
CCN(C(=O)CSc1nnc(-c2ccco2)n1N)c1cccc2ccccc12,.,-1.4
CC1(C)CC(n2c(NCCO)nc3c(c2=O)C2(CCCCC2)Cc2ccccc2-3)CCO1 (configuration not stated),39,-0.65
CCSc1nnc2c3ccccc3n(C)c2n1,-0.67,.
O=c1cc(N2CCCCC2)c(-c2ccccc2)nn1Cc1ccccc1Cl,0.085,.
Fc1ccc(N2COc3cc4c(cc3C2)OCO4)cc1Cl,-0.29,-0.35
O=C(NCCOc1ccccc1F)C1CC(=O)N(Cc2ccccc2)C1 (configuration not stated),.,0.15
O=C(Cn1c(=O)c2c(ncn2C2CCCC2)n(Cc2ccccc2)c1=O)NCC1CCCO1 (configuration not stated),.,-1
CCOc1cc(C#N)ccc1OCC(=O)NC1CCCCCC1,-0.025,-0.55
CC(C)NC(=O)C1CC(c2ccc(Cl)cc2)=NO1 (configuration not stated),.,-0.15
Nc1nc2c3ccccc3nc(Cc3ccccc3)n2n1,0.77,-0.5
O=C(c1ccccc1)N1CCC(n2cccc2)CC1,-0.17,-0.15
CCOC(=O)c1c(CS(=O)(=O)c2ccccc2)n(C)c2cc(Br)c(O)c(CN(C)C)c12,-0.44,.
NS(=O)(=O)c1ccc(CNC(=O)CNC(=O)CNC(=O)c2ccc([N+](=O)[O-])cc2)cc1,0.96,.
O=C(CN1C(=O)C2C3C=CC(C3)C2C1=O)Nc1cccc(F)c1 (configuration not stated),-0.14,.
ONC(=NCCc1ccncc1)C(c1ccccc1)c1ccc(F)cc1 (configuration not stated),0.08,0.35

# Full records as entered above. Order of values: Ba CapD inh	AID504770
# NS(=O)(=O)c1ccc(CNC(=O)CNC(=O)CNC(=O)c2ccc([N+](=O)[O-])cc2)cc1 as listed: 0.96	.
# CCOC(=O)c1c(CS(=O)(=O)c2ccccc2)n(C)c2cc(Br)c(O)c(CN(C)C)c12 as listed: -0.44	.
# CC(C)NC(=O)C1CC(c2ccc(Cl)cc2)=NO1 (configuration not stated) as listed: .	-0.15
# O=C(NCCOc1ccccc1F)C1CC(=O)N(Cc2ccccc2)C1 (configuration not stated) as listed: .	0.15
# Nc1nc2c3ccccc3nc(Cc3ccccc3)n2n1 as listed: 0.77	-0.5

# (further entries)
SMILES,Ba CapD inh,AID504770
CC1=C(OC(=O)/C=C/c2ccccc2)C(=O)CC1,0.96,1.2
O=C(Cn1c(=O)oc2ccccc21)c1ccc(Cl)cc1,-0.58,-0.2
COc1ccc(CC(=O)NN)cc1OC,-0.055,.
CC(=O)Oc1ccc(C2Nc3ccc(C(=O)O)cc3C3C=CCC32)c(OC(C)=O)c1 (configuration not stated),-4.4*,.
CSc1nnc(-c2ccccc2)n1/N=C/c1cc(O)ccc1Cl,0.4,1
COc1cccc(CNc2cc(C)c3cccc(OC)c3n2)c1OC,60,-0.45
COc1ccc(S(=O)(=O)n2nnc3ccccc32)c(C)c1,-0.01,.
O=C1NC(=Nc2ccccc2)SC1Cc1cccc(Cl)c1Cl (configuration not stated),-0.68,.
Cc1nn(CC(=O)NCC2CCCO2)c(=O)c2ccccc12 (configuration not stated),-0.81,-0.45
O=C(Nc1nnc(C2CC2)s1)c1ccc2c(c1)OCO2,1.4,0.1
Brc1c(CSc2nc3ccccc3o2)nc2ccccn12,.,0.45
COc1ccc2c(c1)c1c(c(=O)n(-c3ccccc3)c(=O)n1CC(=O)N1CCCC1)n2C,98,0.5
Cc1nc(N2CCCCC2)c2c(C)c(C(=O)N3CCN(Cc4ccccc4)CC3)sc2n1,0.38,.
CCC(C)SCC(=O)N1CCC(C)CC1 (configuration not stated),0.98,-0.3
c1ccc(Cn2c(-c3cccs3)nc3ccccc32)cc1,47,-0.2
COc1ccccc1C1CC(c2cccs2)=NN1C(=O)CCC(=O)O (configuration not stated),11,.
CN(C)S(=O)(=O)c1ccc(/C(O)=C(\C#N)c2nc3ccccc3s2)cc1,.,-0.15
C1=CC=CC(C2C=CC=CC=C2)C=C1,0.21,.
COc1cccc(C2=Nc3cccc4cccc(c34)N2)c1,0.01,0
CC(=O)N/N=c1\oc2ccccc2cc1C(=O)Nc1ccccc1,0.49,0.2
Cc1ccccc1OCC(=O)Nc1ccc(S(=O)(=O)NC(C)(C)C)cc1,0.24,-1
Cc1ccc(F)cc1NC(=O)Nc1cc(C(C)(C)C)nn1C,-1.6,-0.7
O=C(CN1C(=O)C2(OCCO2)c2ccccc21)c1cccc2ccccc12,-0.96,.
N#CC1=C(SCC(=O)Nc2ccc(F)cc2)NC(=O)CC1c1ccc(F)cc1 (configuration not stated),0.01,0.05
CCC1(c2cccc(OC)c2)CCCC/C1=N\O (configuration not stated),-0.055,-0.85
COc1ccc2c(c1)c1c(c(=O)n(Cc3ccccc3)c(=O)n1CC(N)=O)n2C,13,1.3
O=C1c2ccccc2C(Nc2ccc(S(=O)(=O)N3CCCCC3)cc2)N1c1ccccn1 (configuration not stated),-0.07,0.65
O=C(CSc1ccc(Cl)cc1)NCCN1CCOCC1,-0.3,0.05
COc1cc(/C=N/NC(=O)Cc2c[nH]c3ccccc23)ccc1O,-0.12,.
CO[C@H]1C[C@H](O[C@H]2[C@H](C)[C@@H](OC3O[C@H](C)C[C@H](N(C)C)[C@H]3OC(C)=O)[C@@H](C)C[C@]3(CO3)C(=O)[C@H](C)[C@@H](OC(C)=O)[C@@H](C)[C@@H](C)OC(=O)[C@@H]2C)O[C@@H](C)[C@@H]1OC(C)=O (some centres not stated),.,-0.3
O=c1c(Cl)c(N2CCOCC2)cnn1-c1cnc2ccccc2n1,-2.1,-0.25
Fc1ccccc1-c1n[nH]c(=S)n1CCCN1CCOCC1,-0.85,-1.2
Cc1ccccc1OCc1nc(-c2ccc(NC(=O)c3ccco3)cc2)no1,3.9,0.05
Nc1ccc(C(=O)Nc2nc3ccccc3s2)cc1,80,0.9
COc1cc(C)nc(N(CC(N)=O)S(=O)(=O)c2ccc(C)cc2)n1,-1.4,.
O=C(CSc1nccc(-c2cccs2)n1)N1CCOCC1,5.9,-1.1

# Continued (3 carried over from the part before).
SMILES,Ba CapD inh,AID504770
Nc1ccc(C(=O)Nc2nc3ccccc3s2)cc1,80,0.9
COc1cc(C)nc(N(CC(N)=O)S(=O)(=O)c2ccc(C)cc2)n1,-1.4,.
O=C(CSc1nccc(-c2cccs2)n1)N1CCOCC1,5.9,-1.1
O=C(CSc1ccccn1)Nc1cc(C(=O)O)cc(C(=O)O)c1,-0.2,0.6
Cc1ccn(CCC(=O)Nc2ccc(-c3ccno3)cc2)n1,-0.3,-1.3
N#CCc1ccc(NC(=O)Nc2cccc3ccccc23)cc1,13,-0.1
O=C(NCc1ccccc1)c1ccc2c(=O)n3c(nc2c1)CCCCC3,0.66,.
